Sfp PPTase inh: Sfp phosphopantetheinyl transferase inhibition; Q9F4F7; Biochemical Sfp PPTase activity, qHTS; Potency, µM, for the others: max response, negative = inhibition, hits mostly inhibitors; 3.5% of 310,000 active; active = well fitted inhibition curve with a large enough effect; inconclusive = small, poorly fitted or top-dose-only effect, or another doubt; inactive = no such curve, though single readings can be large or run the other way;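 also: the enzyme is Sfp with the accession as filed and its product quenches rhodamine fluorescence; potency is read from the fitted curve at half-maximal effect; 0% = enzyme reaction without inhibitor and -100% = no enzyme wells; top concentration of the series not given in the record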
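Step 1, compound plus 15 nM Sfp-PPTase, 15 min, room temperature. Step 2, add rhodamine-CoA (5 uM) and BHQ-2-YbbR (12.5 uM). Step 3, read 525/598 nm fluorescence at 0 and 30 min.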
Menin-MLL FL inh: menin-MLL binding inhibition, fluorescein peptide | Fluorescence polarization, fluorescein-MLL peptide displacement from menin | 290,000 tested, under 10 active | FP activity change, % at 61.4 µM; inconclusive = falling polarisation curve, or a change in total fluorescence; inactive = total fluorescence flat and polarisation flat or rising; no compound was filed as active; the % refers to the polarisation; negative = inhibition;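 also: % of control where 0% means no effect; inhibitors lower the polarisation; unlabelled MLL peptide was the positive control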
ClpP mod: qHTS Assay for Activators of ClpP. ATP-dependent Clp protease proteolytic subunit (Bacillus subtilis (strain 168)), P80244. purified B. subtilis ClpP, FRET peptide cleavage, 20 min. Potency, µM (highest dose often 57.5 µM), without a hit: at the highest dose activity change, negative = active. 1.9% of 340,000 active; active = well fitted falling curve with a large enough effect; inconclusive = small, poorly fitted or top-dose-only effect; inactive = no such curve, though single readings can be large or run the other way; also: potency is read from the fitted curve at half-maximal effect; the source files actives as falling curves though it sought activators and does not explain the sign; nearly all actives have a fitted effect of over 65% in size; many hits overshoot -100%
Target sequence (P80244 whole entry, looked up): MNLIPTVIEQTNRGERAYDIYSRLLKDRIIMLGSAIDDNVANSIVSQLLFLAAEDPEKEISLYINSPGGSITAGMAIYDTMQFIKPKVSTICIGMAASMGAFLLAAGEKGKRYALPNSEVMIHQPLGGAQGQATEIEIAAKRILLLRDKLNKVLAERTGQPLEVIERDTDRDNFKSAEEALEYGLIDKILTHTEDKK
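ClpP 10 microg/mL final, pH 8 Tris/KCl buffer with BSA, glycerol, Tween-20; compound pinned in; FRET-FV substrate; RT 20 min; Ex320/Em430; ΔFRET vs ADEP 5.8 microM, DMSO, no enzyme.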
gsp agonist: agonists of gsp mutant (McCune-Albright syndrome); gsp mutant cells, cAMP HTRF, 30 min; control for the full effect not named in the record; Potency, µM (top dose mostly 76.9 µM), for inactives: at the highest dose activation (cAMP increase), most hits filed as activators; 0.13% of 340,000 active; AID 624287; active = well fitted activation curve with a large enough effect; inconclusive = small, poorly fitted or top-dose-only effect, or another doubt; inactive = no such curve, though single readings can be large or run the other way; cell line not stated here;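 also: phosphodiesterase inhibitor Ro 20-1724 added with compounds to block cAMP breakdown; potency is read from the fitted curve at half-maximal effect; nearly all actives have a fitted effect of over 60% in size; about a fifth of the inactives were tested at one dose only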
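Cells stably selected in G418 were plated at 2000/well, grown 16-24 hr, then given compounds in DMSO with the PDE inhibitor […] (300 uM solution added) for 30 min at 37C; cAMP was read by HTRF.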
gsp antagonist: gsp mutant antagonism; AID 624288; 0.4% of 340,000 active; Potency, µM (titrated, usually from 76.9 µM), for inactives: at the top dose activity change, negative = inhibition, hits mostly inhibitors; gsp-mutant cells, cAMP HTRF, 30 min; control for the full effect not named in the record; active = falling curve of any shape with a large fitted effect; inconclusive = falling curve, mostly with a smaller effect; inactive = flat or rising curve; cell line not stated here;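 also: intracellular cAMP measured with PDE inhibitor Ro 20-1724 present during compound exposure; potency is read from the fitted curve at half-maximal effect; % is scaled to controls: 0 for no effect and ±100 for the full control effect; nearly all actives have a fitted effect of over 65% in size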
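HTRF cAMP measurement after 30 min RT detection following 30 min, 37C compound treatment alongside […] (added as 300 uM solution) in G418-selected cells seeded at 2000/well and grown 16–24 h.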
TRPV1 PAM: potentiators of human vanilloid receptor 1 (TRPV1); TRPV1-expressing cells, Fluo-8 calcium influx, capsaicin EC20 potentiation; host cell line not named in the record; control for the full effect not named in the record; AID 540277; potentiation, % at 8.33 µM; 0.02% of 320,000 active; active means potentiation above 80%; inconclusive means 30% to 80%; inactive means below 30%; also: 0% is about no effect
Target sequence (Q8NER1 whole entry, looked up): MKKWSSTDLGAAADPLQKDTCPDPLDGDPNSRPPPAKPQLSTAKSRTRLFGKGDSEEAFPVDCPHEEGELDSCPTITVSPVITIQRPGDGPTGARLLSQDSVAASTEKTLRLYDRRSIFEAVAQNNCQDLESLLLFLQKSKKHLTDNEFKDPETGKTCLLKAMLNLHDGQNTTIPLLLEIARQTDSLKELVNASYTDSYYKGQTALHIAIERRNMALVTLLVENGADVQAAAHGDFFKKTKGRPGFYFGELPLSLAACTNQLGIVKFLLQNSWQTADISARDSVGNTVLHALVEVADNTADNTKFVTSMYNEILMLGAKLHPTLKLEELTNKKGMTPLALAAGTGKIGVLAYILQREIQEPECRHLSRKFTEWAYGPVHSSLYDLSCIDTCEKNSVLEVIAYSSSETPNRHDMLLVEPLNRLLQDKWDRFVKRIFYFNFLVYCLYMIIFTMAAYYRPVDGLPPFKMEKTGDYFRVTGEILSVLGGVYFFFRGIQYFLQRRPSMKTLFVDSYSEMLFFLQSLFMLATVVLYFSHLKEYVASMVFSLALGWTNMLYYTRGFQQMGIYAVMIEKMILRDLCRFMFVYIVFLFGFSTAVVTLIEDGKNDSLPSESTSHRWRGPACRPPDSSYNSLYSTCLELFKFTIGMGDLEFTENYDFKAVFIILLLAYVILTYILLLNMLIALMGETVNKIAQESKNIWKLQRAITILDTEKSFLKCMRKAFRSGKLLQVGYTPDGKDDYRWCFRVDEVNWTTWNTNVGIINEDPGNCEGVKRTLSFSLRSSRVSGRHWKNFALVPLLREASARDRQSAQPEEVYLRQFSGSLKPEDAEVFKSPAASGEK
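Fluo-8 calcium influx in TRPV1-expressing cells, kinetic read (ex 480/em 520 nm). Compound added and read 3 min for agonist activity, followed by capsaicin at EC20 final and 2 min further read for enhancement.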
CtBP-E1A inh: blocks the CtBP interaction with E1A; AlphaScreen GST-E1A/His-CtBP binding, 1536-well; hits give low values; control for the full effect not named in the record; activity change, % (test concentration not listed); AID 651724; 0.49% of 340,000 active; in the data active means activity change below about -65%; inconclusive means about -30% to -65%; inactive means above about -30%; also: % is scaled to controls: 0 for no effect and ±100 for the full control effect; compound concentration not given in the record
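AlphaScreen with 125 nM GST-E1A and 125 nM His-CtBP (5X stocks) in Tris pH 8.0, 300 mM NaCl, BSA, Tween 20, TCEP. Compounds preincubated 2 h at 37 deg C, then glutathione donor/nickel acceptor beads added for 1 h at 37 deg C in dark.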
Active calls of the source: *; ? = inconclusive; / = not tested or not shown; & = joins results of further samples; [ ] = dose if it differs, or a comment.

SMILES	Sfp PPTase inh	Menin-MLL FL inh	ClpP mod	gsp agonist	gsp antagonist	TRPV1 PAM	CtBP-E1A inh
Cc1ccc(-c2csc(NC(=O)COc3ccc(N(C)S(=O)(=O)c4ccc(C)cc4)cc3)n2)cc1	5%	0.5	0.8%	14%	8%	-5	-12
CCN(CC(=O)Nc1ccc(NC(C)=O)cc1)C(=O)/C=C/c1ccc([N+](=O)[O-])cc1	/	/	-0.6%	18%	7%	6	-1
Cc1ccc(NC(=O)CN(C)C(=O)COC(=O)COc2cc(C)cc(C)c2)cc1	/	/	1.3%	-24%	/	/	-2
O=C(Cc1cccc(NC(=O)C2CCN(C(=O)C3CC3)CC2)c1)Nc1cccc(C(=O)N2CCCC2)c1	/	/	-1.3%	-12%	4%	-15	0
O=C(CCCNC(=O)c1ccc(Cl)cc1)NCc1ccccc1Cl	6%	-5.0	1.5%	-40%[inhibitor]	8%	-13	-2
Cc1nc2ncnn2c(C)c1CCC(=O)NC(C)CCc1ccco1 (centres undefined)	18%	2.9	-0.6%	4%	5%	8	4
COc1ccc(NC(=O)CSc2nc3ccccc3c3nc4ccccc4n23)cc1	-8%	1.4	1.3%	14%[15.4 µM]	-1%	19	2
CCn1cc(C(=O)NCC(=O)NCCCN2CCOCC2)c(=O)c2cc3c(cc21)OCO3	10%	0.0	-15%	?	18%	-8	?
O=C(CSc1nnc(-c2ccncc2)o1)Nc1cccc(Cl)c1	/	/	0.7%	-37%[inhibitor]	5%	/	7
COc1cccc(NC(=S)N2CCN(Cc3ccccc3)CC2)c1	-5%	0.9	0.7%	-5%	20%	-1	2
Cc1cc(C)nc(NC(=O)c2ccc(OC(C)C)cc2)n1	4%	-1.3	-1.6%	16%	4%	4	1
Cc1ccc(S(=O)(=O)CCC(=O)NCCC2=CCCCC2)cc1	/	/	/	5%[15.4 µM]	3%	-14	-4
COc1ccc(NC(=O)CSCC(=O)N(C)Cc2c(F)cccc2Cl)cc1	/	/	-1.3%	-9%	-10%	0	3
CC(C)OCCCNC(=O)c1ccc2c(c1)ncn2C1CCCC1	8%	1.3	-2.5%	-15%	0%	14	4
O=C(CCc1ccccc1)Nc1ccc(NC(=O)C2CCCCC2)nc1	6%	-0.2	/	-22%[15.4 µM]	1%	5	0
CCSCc1nnc(SCC(=O)Nc2nccs2)n1CC	11%	-4.6	/	18%[15.4 µM]	3%	3	0
CNc1nnc(SCC(=O)c2cc(C)n(C3CC3)c2C)s1	/	/	1.2%	3%	5%	-5	/
Cc1ccc(N(C(=O)c2ccc3c(c2)OCO3)C2C=CS(=O)(=O)C2)cc1C (centres undefined)	13%	/	1.6%	-20%	1%	-6	15
O=C(/C=C/c1ccccc1)Nn1cnnc1	22%	1.8	-0.2%	?	-2%	2	-3
O=C(Nc1ccc2c(c1)[C@@H]1C[C@@H](CC(=O)N3CCOCC3)O[C@@H](CO)[C@@H]1O2)NC1CCCC1	/	/	0.4%	-13%	/	/	5
O=C(CSc1nnnn1-c1ccc(F)cc1)NC1CCCCC1	8%	-0.2	-0.1%	8%	-8%	0	3
N#C/C(=C(/O)COC(=O)c1ccccc1O)c1nc2ccccc2s1	7%	6.5	/	12%[15.4 µM]	-19%	6	/
O=C(c1ccc(=O)[nH]n1)N1CCN(S(=O)(=O)c2ccccc2F)CC1	/	/	0.8%	9%	7%	/	1
CCCN1CCN(CCCNC(=O)c2ccc(CS(=O)c3ccccc3C)o2)CC1 (centres undefined)	11%	/	-1.5%	-2%	4%	15	-15
COc1ccc(-c2nc(CSCC(=O)NCC3CCCO3)c(C)o2)cc1OC (centres undefined)	2%	3.5	?	15%	9%	-6	1
Cc1cccc(N2CC(C(=O)Nc3nnc(SCC(=O)N4CCOCC4)s3)CC2=O)c1 (centres undefined)	-23%	6.6	2.3%	-47%[inhibitor]	6%	3	-20
CCOC(=O)C/C(C)=N/NC(=O)CNc1cccc(Cl)c1C	19%	-1.5	/	-8%[15.4 µM]	6%	4	7
Cc1ccc(C(=O)C2=C(O)C(=O)N(Cc3cccnc3)C2c2cccc(Oc3ccccc3)c2)o1 (centres undefined)	/	/	-0.5%	71%[15.4 µM]	-7%	/	-11
COc1ccc(C2C(C(=O)Nc3cccc(C)n3)c3ccccc3C(=O)N2C)cc1 (centres undefined)	3%	-0.3	2.4%	-37%[inhibitor]	-20%	3	-1
CCn1cc(CN2CCC(n3nccc3NC(=O)CCOc3ccccc3)CC2)c(C)n1	11%	/	-1.8%	0%	10%	7	2
CCn1c(-c2cccn(Cc3ccc(Cl)cc3Cl)c2=O)n[nH]c1=S	-21%	-1.7	/	27%[15.4 µM]	-4%	-10	/
COc1ccccc1NC(=O)c1ccc2c(O)c(S(=O)(=O)c3ccccc3)c(=O)[nH]c2c1	18%	5.1	3.6%	?	13%	19	-20
C/C(N)=C(/C#N)C(=O)COC(=O)c1cccc2ccccc12	-2%	1.3	?	-88%[inhibitor]	0%	-11	/
O=S1(=O)CCN2C(c3cccc4ccccc34)=CSC2=N1	8%	0.9	/	2%[15.4 µM]	/	-10	13
O=C(Nc1ccc2nn(-c3ccccc3)nc2c1)c1cccs1	-8%	4.2	103%	-52%[inhibitor]	-3%	-4	6
COc1cc(C(=O)n2nc(C)cc2C)ccc1O	3%	2.9	-0.3%	-13%	15%	-9	9
COc1ccc(S(=O)(=O)NCc2ccccn2)cc1NC(=O)c1ccccc1	2%	2.5	/	-19%	8%	-3	0
CNC(=O)CC(C(=O)O)c1ccc(OC(C)C)cc1 (centres undefined)	-2%	-0.2	-0.2%	-32%[inhibitor]	11%	-12	3
Cc1cc(Oc2ccccc2)nc(NCc2ccccc2)n1	2%	3.7	-17%	5%	-8%	-6	0
O=c1c2ccccc2[nH]c(=S)n1Cc1ccccc1Cl	18%	5.4	/	-8%[15.4 µM]	-10%	-7	3
COc1cccc(NC(=O)CN(C)C(=O)Cc2n[nH]c(=O)c3ccccc23)c1	/	/	-3.0%	-36%[inhibitor]	6%	7	-15
COC(=O)CS(=O)(=O)c1ccc2c(c1)CC(=O)N2	6%	-0.7	7.8%	19%	5%	8	6
CC(CCc1ccccc1)NC(=O)C(Cc1ccccc1)NS(=O)(=O)c1cccs1 (centres undefined)	11%	2.1	-3.1%	17%	-18%	-3	-10
CCC(C)(C)NC(=O)C(c1ccc(C)cc1)N(CC1CCCO1)C(=O)c1csnn1 (centres undefined)	14%	4.4	/	10%	4%	-2	-8
O=C(Nc1ccc(F)cc1)Oc1ccccc1N1CCOCC1	21%	4.0	/	-9%[15.4 µM]	2%	/	7
O=C(NCc1nnc(SCC(=O)N2CCc3ccccc32)o1)c1ccco1	8%	-0.4	-2.1%	?	4%	-2	-16
O=C(Nc1sc2c(c1C(=O)O)CCCCC2)c1cccnc1	-17%	-1.8	-4.5%	?	3%	-4	/
COC(=O)[C@@H](N)CS	11µM*	2.6&-0.7	-1.5%	/	5%	-4	-23
COc1ccc(S(=O)(=O)N(CC(=O)Nc2ccc(S(=O)(=O)N3CCOCC3)cc2)Cc2ccc(F)cc2)cc1	13%	-2.2	0.4%	11%[15.4 µM]	-14%	3	1
CC1CCc2c(sc(N)c2C(N)=O)C1 (centres undefined)	-83%	4.0	-7.6%	-26%	-6%	22	0
O=C(Nc1ccn(Cc2ccc(Cl)cc2)n1)c1ccc2c(c1)OCO2	-10%	2.0	-0.5%	?	4%	-39	2
CCCCn1c(N)c(N(CCOC)C(=O)CSCc2cccc(C)c2)c(=O)[nH]c1=O	/	/	-4.2%	-4%	5%	5	-5
CCOc1ccccc1NC(=O)Cn1cnc2c(cnn2-c2ccc(C)c(C)c2)c1=O	11%	-0.3	85%	5%	1%	16	-2
C/C(=N\Nc1ccc(F)cc1F)c1ccc(Br)s1	5%	1.8	/	?	7%	-4	10
Cc1cccc(NC(=O)CSc2nnc([C@@H](N)Cc3ccccc3)o2)c1C	3%	-4.3	1.0%	0%	0%	1	3
O=C(NN1S(=O)(=O)c2ccccc2S1(=O)=O)c1ccc(Br)cc1	?	0.2	-2.5%	?	4%	-13	-2
Cc1nc2sc(C(c3cccc(F)c3)N3CCC(O)CC3)c(O)n2n1 (centres undefined)	10%	-0.7	1.1%	-4%	7%	-5	2
CC1=CC(=C2C(=O)c3ccccc3C2=O)C=C(C)O1	6%	0.7	-1.4%	0%[15.4 µM]	?	-2	-9
N#CC(C(=O)CCN1C(=O)C2CC=CCC2C1=O)c1nc2ccccc2[nH]1 (centres undefined)	-2%	3.0	0.9%	-64%[inhibitor]	18%	4	24
CCOc1ccc2nc(SC3CC(=O)N(c4ccc(OC)cc4)C3=O)sc2c1 (centres undefined)	-5%	3.7	1.3%	6%	-29%	2	1
(next part)
SMILES	Sfp PPTase inh	Menin-MLL FL inh	ClpP mod	gsp agonist	gsp antagonist	TRPV1 PAM	CtBP-E1A inh
COC(=O)c1ccc(S(=O)(=O)N2CCC(c3nc4ccccc4o3)CC2)cc1	6%	2.7	-0.2%	9%	5%	2	4
COc1ccc(C(=O)NCC(=O)NCC(=O)OCC(=O)c2ccc(Br)cc2)cc1	17%	-1.6	1.1%	-105%[inhibitor]	18%	-2	1
CC(Oc1ccccc1)C(=O)NC1CCSc2ccccc21 (centres undefined)	/	/	-0.7%	-104%[inhibitor]	1%	?	/
CC(=O)N(CCC1(c2ccc(C)cc2)CCOC(C(C)C)C1)Cc1ccco1 (centres undefined)	-7%	2.9	/	11%[15.4 µM]	-11%	-20	0
CCn1c(SCC(=O)c2[nH]c(C)c(C(C)=O)c2C)nnc1-c1ccccc1	1%	-1.1	-1.0%	-3%	20µM*	1	2
C[C@@H]1O[C@@H](OC[C@H]2O[C@@H](Oc3c(-c4ccc(O)cc4)oc4cc(O)cc(O)c4c3=O)[C@H](O)[C@@H](O)[C@@H]2O)[C@H](O)[C@H](O)[C@H]1O	/	/	1.1%	-6%	6%	-5	8
COc1ccc(OCC(=O)NNC(=O)C2CCN(c3ncnc4sc(C)c(C)c34)CC2)cc1	/	/	0.3%	-25%	?	-9	-17
O=C(Nc1ccncc1)c1c(F)c(F)c(F)c(F)c1F	19%	1.0	-1.1%	9%[15.4 µM]	-9%	-22	-3
